Bioassay records: PubChem, ICCB-Longwood Screening Facility, Harvard Medical School
AID504770 = growth inhibition of E. coli YBA685, primary screen, V. cholerae RctB inhibitors; hit rate 0.27% among 130,000; z-score (no concentration beside the values); E. coli YBA685 rctB-dependent plasmid, OD600 growth, 3 h; active compounds read low; AID 504770, 2011;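 active = z-score under -2 on both plates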;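 note: wells of about 30 µL received 100 nL stock; score is relative to mean and SD of the test wells; the first replicate is given; strong numbers were not always called active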
CapD inh = Bacillus anthracis CapD inhibitors, primary screen, biochemical, fluorescence intensity | z-score (test concentration not listed) | AID 492967, 2010 | purified CapD enzyme, fluorescence intensity read-out; active compounds read low; some hits fall short of the stated cut | CapD gamma-glutamyltranspeptidase (Bacillus anthracis Ames Ancestor) | hit rate 0.23% among 140,000;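 active = z-score under -4 in either of two replicates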;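 note: stock transfer was 100 nL into about 40 µL; score is relative to mean and spread of the plate; one replicate is shown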
* marks the source's active call; other numbers are inactive results; . = no result given.

Below each compound: AID504770	CapD inh
- CCCc1cc(=O)oc2cc(OCC=C(C)C)ccc12
    -0.5	15
- CC1(C)CC(NS(=O)(=O)c2ccccc2)CC(C)(C)N1
    -0.25	.
- CC(=O)N1CCc2cccc(NC(=O)c3ccc(C(F)(F)F)cc3)c21
    .	-0.69
- O=C(CCS(=O)(=O)c1ccc2c(c1)NC(=O)CS2)NCc1ccccc1
    -0.85	-0.18
- COC(=O)c1scc(S(C)(=O)=O)c1-n1cccc1
    .	-0.08
- CC12CC3CC(C)(C1)CC(C(=O)NC1=NCCS1)(C3)C2
    -0.8	0.14
- CCOc1nnc(NS(=O)(=O)c2ccc(N=Cc3ccccc3O)cc2)s1
    -0.8	-0.83
- O=C(O)CSc1cccc[n+]1[O-]
    -0.8	-0.32
- COc1cc([N+](=O)[O-])c(OC)cc1SCc1n[nH]c(=S)n1-c1cccc(Cl)c1C
    .	0.64
- COc1ccccc1Nc1nc(C)c([N+](=O)[O-])c(Nc2ccccc2OC)n1
    .	0.3
- CCCCCCCc1c(O)c2ccccc2[nH]c1=O
    .	0.77
- CC(=O)Nc1ccc(S(=O)(=O)n2nnc3ccccc32)cc1
    .	-0.24
- Cc1c2c(c(C)n1C)C(C(=O)NC1CCCCC1)N(Cc1ccccc1)C2=O (stereo not given)
    0.1	.
- COc1cc(OC)c2nc(C)c3c(c2c1)SCC3
    -0.1	80
- Cc1ccc(C)c(-n2c(SCc3ccc(C#N)cc3)nnc2-c2cc3sccc3n2C)c1
    -1.1	-0.78
- CCOC(=O)c1sc(N)c(C#N)c1COC(=O)C1CC(=O)N(c2ccccc2OC)C1 (stereo not given)
    0.4	.
- CC1=Nc2ccccc2N=C(N)C1c1ccc(Cl)cc1 (stereo not given)
    -1.1	-0.005
- C[N+]1(C)CC(=O)OC(CO)C1 (stereo not given)
    -0.4	0.23
- CCS(=O)(=O)n1nc(-c2ccco2)nc1SC
    0.65	-0.49
- CC1(C)CC(=O)C2=C(C1)N=C1c3ccccc3C(=O)C1C2c1ccc(OC(=O)c2ccc(Br)cc2)cc1 (stereo not given)
    .	0.41
- CNS(=O)(=O)c1cc(Cl)ccc1Sc1ccccc1C(=O)O
    -0.5	-1.1
- COc1ccc(-n2ncc(C(=O)NCc3sccc3C)c2C)cc1
    -0.85	-0.075
- N#CCc1nc2ccccc2[nH]1
    -0.45	0.7
- O=C(Nc1nc(-c2ccc3c(c2)OCCO3)cs1)c1ccc(Br)s1
    0.3	.
- Cc1ccc(S(=O)(=O)C(F)(F)F)cc1NC(=O)c1cccnc1
    -0.7	-0.85
- C=CCn1c(SCC(=O)Nc2ccc(Cl)cc2)nnc1-c1cccs1
    .	-0.28
- Cc1[nH]c2ccccc2c1C(=O)CSc1ccc(Cl)cc1
    1.3	0.02
- N#Cc1nc(COc2ccc(Cl)cc2)oc1NCc1ccco1
    -0.25	.
- CCOC(=O)c1c(-c2ccccc2)c[nH]c1NC(=O)Nc1ccc(Cl)cc1
    .	2.1
- O=C(CSc1ccc(F)cc1)NC(=O)C1CCCCC1
    -0.35	.

Shown bar-delimited: entries from further up
SMILES | AID504770 | CapD inh
CNS(=O)(=O)c1cc(Cl)ccc1Sc1ccccc1C(=O)O | -0.5 | -1.1
COc1ccc(-n2ncc(C(=O)NCc3sccc3C)c2C)cc1 | -0.85 | -0.075
N#CCc1nc2ccccc2[nH]1 | -0.45 | 0.7
O=C(Nc1nc(-c2ccc3c(c2)OCCO3)cs1)c1ccc(Br)s1 | 0.3 | .
Cc1ccc(S(=O)(=O)C(F)(F)F)cc1NC(=O)c1cccnc1 | -0.7 | -0.85

Continuation.
Below each compound: AID504770	CapD inh
- COc1ccc(NC(=O)c2cc(N3CCOCC3)nc3ccccc23)cc1Cl
    .	-0.53
- Cc1ccc(-c2nc3cc(N=Cc4ccccc4O)ccc3o2)cc1
    -0.8	.
- COc1ccccc1NC(=O)N1CCCSC1=NC1CCCCC1
    -0.8	.
- Cc1ccc(/C=C2\SC(=O)N(CCNC(=O)c3ccc(OCc4c(C)noc4C)cc3)C2=O)cc1
    -0.3	.
- Cc1c(-c2cccc(NC(=O)C(C)(C)Oc3ccc(Cl)cc3)c2)nc2ncccn12
    0	0.04
- CC1Cc2nc(SCC(=O)N3CCCCC3)n(Cc3ccccc3)c(=O)c2S1 (stereo not given)
    0.1	-0.22
- O=C(CCn1ccc2cc(S(=O)(=O)N3CCCC3)ccc21)NCc1ccccc1
    0.05	-0.05
- COc1cc(C(=O)NCC2CCCO2)nc(OC)n1 (stereo not given)
    .	-0.53
- COc1ccc2oc(C(=O)OCc3cc(=O)n4c(C)csc4n3)c(C)c2c1
    0.45	.
- COC(=O)C1=C(C)C(c2ccc(OC)cc2)NC(=O)N1 (stereo not given)
    -0.75	-0.21

Ordered by molecular weight (low to high): some entries from above.
Below each compound: AID504770	CapD inh
- Cc1ccc(-c2nc3cc(N=Cc4ccccc4O)ccc3o2)cc1
    -0.8	.
- COc1ccc(NC(=O)c2cc(N3CCOCC3)nc3ccccc23)cc1Cl
    .	-0.53
- Cc1ccc(/C=C2\SC(=O)N(CCNC(=O)c3ccc(OCc4c(C)noc4C)cc3)C2=O)cc1
    -0.3	.

Following part
Below each compound: AID504770	CapD inh
- Cc1ccc(C(O)(C(=O)NN2CCOCC2)c2ccc(C)cc2)cc1
    -0.2	-0.74
- COc1cccc(C2(O)CC(C(F)(F)F)=NN2C(=O)c2ccccc2[N+](=O)[O-])c1 (stereo not given)
    .	-0.03
- Cc1ccc(S(=O)(=O)NCCOc2nc(NC(C)C)nc(NC(C)C)n2)cc1
    .	-0.69
- CCC(CC)NC1CCCCC1OC (stereo not given)
    -0.6	.
- CCCCCCCCCCCCCCCCCCCCCC(=O)OCC1OC2OC(C)(C)OC2C2OC(C)(C)OC12 (stereo not given)
    .	-0.14
- COc1ccc(C2C3=C(CC(C)(C)CC3=O)Nc3[nH]c(=O)[nH]c(=O)c32)cc1 (stereo not given)
    1.2	1.4
- O=c1cc(O)c2sc3nc4c(cc3c2[nH]1)CCCC4
    -0.5	.
- CCc1ccc(-c2cn3c4ccccc4nc3n2CCO)cc1
    0	3.5
- O=C(COC(=O)C(Cc1c[nH]c2ccccc12)NC(=O)c1ccco1)c1ccc(Br)cc1 (stereo not given)
    .	-0.59
- CC(C)(C)c1cc(C(=O)NNC(=O)c2ccc(C(F)(F)F)cc2)cc(C(=O)NNC(=O)c2ccc(C(F)(F)F)cc2)c1
    .	0.08
- O=C(NCCSCc1ccco1)Nc1ccc(OCc2ccccc2)cc1
    .	-0.15
- Cc1cccc(N(C)S(=O)(=O)c2ccc3c(c2)CCN3C(=O)C2CC2)c1
    0.15	0.13
- OC(CN1CCN(c2cccc(Cl)c2)CC1)c1ccc(C(F)(F)F)cc1 (stereo not given)
    .	-0.32
- CC(C)Sc1ccc(/C=N/OCc2c(Cl)cccc2Cl)cc1[N+](=O)[O-]
    .	-0.42
- CC(C)NS(=O)(=O)c1ccc(NC(=O)c2ccncc2)cc1
    -0.8	0.41
- O=C(c1cc(S(=O)(=O)N2CCC3(CC2)OCCO3)ccc1F)N1CCC2(CC1)OCCO2
    -0.4	4.2
- C/C(=N\OCc1nc2c3cnn(Cc4ccccc4)c3ncn2n1)c1ccccc1
    -0.95	-0.005
- CCOc1ccc(N2C(=O)NC(=O)/C(=C/c3ccc(OC)c([N+](=O)[O-])c3)C2=O)cc1
    .	-0.41
- Cc1ccsc1C(=O)Nc1ccccc1N1CCOCC1
    -1.4	.
- C=C(C)CSc1nnc(CNC(=O)OC(C)(C)C)n1-c1ccccc1
    0.85	-0.3
- CC1(C)CC(=O)C2=C(C1)N=C1c3ccccc3C(=O)C1C2c1ccccc1Cl (stereo not given)
    .	-0.58
- N#Cc1c(NC(=O)c2nn3c(c2Cl)NC(c2cccs2)CC3C(F)(F)F)sc2c1CCCC2 (stereo not given)
    .	1.5
- O=C(NCCC(c1ccccc1)c1ccccc1)c1cc2ccccc2c(=O)o1
    0.05	18
- CC1CCN(CC(C)OC(=O)c2ccc3c(c2)OCCO3)CC1 (stereo not given)
    0.9	.
- O=C(Cc1ccc(F)cc1)Nc1nnc(-c2ccc(F)cc2)o1
    -1.3	.
- Cc1nc(-c2cnccn2)sc1C(=O)N1CCN(C)CC1
    -0.85	6.1
- Cc1ccc(NC(=O)c2ccco2)c(N)c1
    0.15	0.7
- O=C(Oc1ccc(C2=NCCS2)cc1)c1ccccc1Cl
    -1.2	10
- Fc1cccc(NC2=NCCS2)c1
    -1.6	-0.84
- Cc1ccc(OCCOn2nnc3ccc(S(=O)(=O)N(C)C)cc32)cc1
    0.1	.
- CCCCNc1ncnc2c1c(-c1ccccc1)cn2-c1ccc(OC)cc1
    .	0.69
- CCN1CCc2c(OCc3ccc(Cl)cc3)cccc2C1=O
    -0.05	0.22
- CN(CC(=O)Nc1cccnc1)S(=O)(=O)c1cccc2cccnc12
    -0.75	-0.16
- CN(C)C(=O)/C(=C\c1ccccc1)NC(=O)c1ccccc1
    0.15	-0.095
- O=C(CN1CCCC1c1ccc2c(c1)OCCO2)NC(=O)Nc1ccccc1F (stereo not given)
    -0.1	.
- COC(=O)Nc1ccc(SC(F)(F)C(F)(F)C(F)(F)F)cc1
    0	.
- CCOC(=O)c1sc(NC(=O)Nc2ccc(F)cc2)nc1C
    2	.
- Cc1ccc(CC(C#N)Sc2nnc(-c3ccccc3F)o2)cc1 (stereo not given)
    -0.25	.
- COc1cccc(S(=O)(=O)Nc2ccc(C(=O)N3CCCCCC3)cc2)c1
    -1	-0.35
- Cc1ccccc1OCc1nnc(N)s1
    -0.85	0.45
- O=C(Oc1cc(=O)oc2ccccc12)c1ccc2c(c1)OCCO2
    .	0.26
- O=C(NCC1CCCO1)c1cc2c(=O)[nH]c3ccccc3c2s1 (stereo not given)
    -1.3	-0.38
- O=S(=O)(Cc1ccc(Cl)cc1)NCc1cccnc1
    0.1	0.24
- CS/C(=C/C(=O)c1ccco1)Nc1ccccc1Cl
    0.5	-0.84
- Fc1ccc(-c2cn3ccsc3n2)cc1
    0.3	0.55
- COc1ccc(CCNC(=O)C(C(C)C)N2Cc3ccccc3C2=O)c(OC)c1OC (stereo not given)
    0	0.11
- FC(F)(F)c1cc(Nc2ccccc2)nc(-c2ccccn2)n1
    -0.55	0
- Cc1ccc(-c2nc(Nc3ccc(C)c(Cl)c3)sc2CC(=O)O)cc1
    -0.35	0.1
- Fc1ccc(NC(=S)N2CCc3ccccc32)cc1
    -0.2	-0.68
- CS(=O)(=O)NC12CC3CC(CC(C3)C1)C2
    -1.1	-0.47

The list continues.
Below each compound: AID504770	CapD inh
- CCCCc1ccc(C#N)c(SCc2c(C(=O)OCC)c3cc(OC(C)=O)c(Br)cc3n2C)n1
    .	0.33
- Cc1c(S(=O)(=O)c2ccc(Cl)cc2)csc1C(=O)Nc1cc(C(F)(F)F)ccc1N1CCCC1
    0	-0.84
- CCC(=O)Nc1cc(C)c2c(=O)oc3ccccc3c2n1
    -0.45	3.5
- O=C(NCc1ccco1)C1CCCN1S(=O)(=O)c1ccc2ccccc2c1 (stereo not given)
    -0.15	0.6
- Cc1cc(=O)oc2c1c(C)nn2CN1CCN(C)CC1
    -0.3	.
- CCOC(=O)c1c(C)[nH]c(C(=O)Cn2nnc(-c3ccccc3)n2)c1C
    1.4	.
- O=S1(=O)C=Cc2ccccc21
    .	2.5
- COc1ccccc1Cn1c(=O)c2ccccc2n2c(SCC(=O)N3CCOCC3)nnc12
    0.3	.
- CC(=O)N1c2ccc(S(=O)(=O)N3CCC(C(=O)NCCC4=CCCCC4)CC3)cc2CC1C (stereo not given)
    -0.4	0.015
- CCc1ccc2c(CC(=O)Nc3ccc(N4CCOCC4)cc3)coc2c1
    -0.1	.
- Cn1c(NC(=O)c2cccs2)c(-c2cccs2)c(=O)c2ccccc21
    -0.6	.
- O=C(NC1CC1)c1ccccc1NS(=O)(=O)c1ccc(F)cc1
    0.7	2.5
- CCCCn1ccnc1C(=O)c1cc(F)c(F)c(F)c1F
    -0.4	0.4
- O=C(NC(=S)Nc1ccccc1O)c1ccccc1
    1.5	.
- O=C(NCc1ccccc1)c1cccnc1
    -0.5	.
- O=C(NC1CCCC1)c1ccccc1-c1nc(-c2ccc(Cl)cc2)no1
    0.05	-0.7
- CN1CCN(c2nc(-c3ccc(Cl)cc3)c(S(C)(=O)=O)cc2C#N)CC1
    .	-0.09
- CC1CCN(C(=O)/C(=C\c2ccccc2)NC(=O)c2ccccc2)CC1
    2.1	-1.3
- CCN(CC)C(=S)NC(=O)c1ccccc1
    -0.3	.
- OC(CSc1ccccc1)CN1CCN(c2ccc(C(F)(F)F)cn2)CC1 (stereo not given)
    .	-0.72
- Cc1cc(NS(=O)(=O)c2ccc(NC(=O)c3cc(-c4ccc(C)o4)nc4ccccc34)cc2)nc(C)n1
    .	19
- COc1ccc(N2CCN(C(=O)COc3ccccc3-c3nnc(-c4ccccc4)o3)CC2)cc1
    -0.85	-0.13
- CC(C)Cn1cnc2c1c(=O)[nH]c(=O)n2CC(C)C
    -3	.
- CCN=C1S/C(=C\c2ccc(O)c(OCC)c2)C(=O)N1CC
    -0.9	.
- O=C1OC(N2CCCC2)c2ccccc21 (stereo not given)
    0.5	0.29
- COc1ccc(NC(=O)c2c(NCc3cccc(OC)c3OC)sc3c2CCCCC3)cc1
    .	0.65
- CN(C)c1ccc(/C=C2\CSC(=S)NC2=O)cc1
    1.2	-1.8
- c1ccc2[nH]c(NN=C3CCCC3)nc2c1
    -0.55	.
- COc1cc2[nH]c3c(=O)n(Cc4ccc(Cl)cc4)cnc3c2cc1OC
    0.05	46
- COC(=O)c1ccc(CSc2nc3ccc(S(N)(=O)=O)cc3[nH]2)cc1
    0	.
- Cc1ccccc1Nc1nc(N)nc(COC(=O)CCc2nc3ccccc3c(=O)[nH]2)n1
    0.1	.

Compounds as they come. Share with any hit: about 0.39%.
